# Source: PubChem (several laboratories)
# GALR2 ag = agonists of human galanin receptor 2 (GALR2); O43603; GALR2-expressing cells, agonist activation read-out; activation, %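 (tested at 5 µM)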; hit rate 0.48% among 140,000; AID 803;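 active means above mean plus 3 SD of all compounds, about 5% in these data, not always enough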;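 further: 0% = vehicle buffer wells and 100% = reference agonist at full effect; tested in CHO reporter cells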
# Target sequence (O43603 whole entry, looked up): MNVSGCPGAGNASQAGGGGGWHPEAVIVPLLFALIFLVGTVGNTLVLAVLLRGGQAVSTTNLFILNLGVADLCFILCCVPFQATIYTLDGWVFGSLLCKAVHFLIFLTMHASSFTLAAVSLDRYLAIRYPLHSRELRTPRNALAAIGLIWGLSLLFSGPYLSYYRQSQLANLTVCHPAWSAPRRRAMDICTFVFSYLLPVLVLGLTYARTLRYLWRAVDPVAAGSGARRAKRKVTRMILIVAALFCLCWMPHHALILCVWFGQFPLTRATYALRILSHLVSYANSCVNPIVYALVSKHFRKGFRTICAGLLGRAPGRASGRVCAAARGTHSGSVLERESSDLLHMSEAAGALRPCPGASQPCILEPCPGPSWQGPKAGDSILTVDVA
# RGS16-Gao = modulates binding between human RGS16 and Galphao. O15492+P09471. binding response (% of control), % at 10 µM. bead-based flow cytometry RGS16-Galphao binding, fluorescence; actives lie on both sides. hit rate 0.38% among 220,000;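 active means below 25% or above 175%, edge rows of some plates excepted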;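 further: Galphao activated by GDP with aluminum fluoride before binding; 100% = wells without compound and 0% = beads without RGS; some results beyond the cut were filed as inactive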
# Target sequence (O15492 whole entry, looked up): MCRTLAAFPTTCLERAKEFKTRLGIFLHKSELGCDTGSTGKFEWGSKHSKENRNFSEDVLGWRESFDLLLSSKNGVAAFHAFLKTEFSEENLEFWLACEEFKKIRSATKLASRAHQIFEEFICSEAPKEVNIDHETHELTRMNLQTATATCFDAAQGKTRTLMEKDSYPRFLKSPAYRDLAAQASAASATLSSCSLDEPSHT
# Target sequence (P09471 whole entry, looked up): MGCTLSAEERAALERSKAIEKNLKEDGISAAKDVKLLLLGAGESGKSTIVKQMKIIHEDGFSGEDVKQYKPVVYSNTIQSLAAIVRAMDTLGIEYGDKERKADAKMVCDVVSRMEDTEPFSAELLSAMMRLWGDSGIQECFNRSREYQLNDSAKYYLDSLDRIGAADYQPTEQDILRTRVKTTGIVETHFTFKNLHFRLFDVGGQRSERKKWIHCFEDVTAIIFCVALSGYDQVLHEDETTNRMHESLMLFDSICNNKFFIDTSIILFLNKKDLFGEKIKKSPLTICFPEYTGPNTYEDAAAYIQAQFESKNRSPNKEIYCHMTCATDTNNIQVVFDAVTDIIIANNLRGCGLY
# PKD1 kinase inh = blocks activity of human protein kinase D1. Q15139. PKD1 kinase fluorescence polarization assay. inhibition, %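 (about 10 µM by stock and volumes)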. hit rate 0.056% among 200,000;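 active means inhibition of 50% or more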;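 further: controls were vehicle for no effect and a reference inhibitor for full effect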
# HSV augment = HSV replication enhancement | HSV replication augmentation in cells, fold increase | hit rate 0.005% among 220,000 | maximum fold increase;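 active means peak rise of 1.5-fold or more in the series; tested in PC3 cells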;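 further: first round at 10 µM; read as green reporter fluorescence; hits show the peak of a series up to 25 µM; 1 = signal of infected wells without compound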
# Insulin prom inh = TRM-6 insulin promoter activity inhibition. TRM-6 cells (human fetal islet line), insulin promoter-eGFP reporter, imaging; reporter expression induced with tamoxifen. inhibition, % at 2 µM. hit rate 0.9% among 130,000;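 active means inhibition above the mean plus 3 SD, with well images judged a real hit on visual review, cut at about 60% in these data, passing the limit was not always enough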
# Insulin prom inh cell count = recorded beside Insulin prom inh, whose call it bears; normalized cell count, %; measured here: cell count, toxicity; reference of the scale not given here;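 cells exposed to compound for 48 h; stained nuclei by imaging scaled within each plate; lower means fewer cells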
# HSV augment primary fold = also measured in HSV augment; calls as there; fold increase; compound at 10 µM; measured here: primary screen fold increase 10 uM; tested in PC3 cells;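 GFP signal in the first replicate; 1 = infected wells without compound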
# Numbers without * were called inactive; i = inactive; x = no result given. Rows were taken by chance; 1.3% or so of the library scored in one or more.
SMILES,GALR2 ag,RGS16-Gao,PKD1 kinase inh,HSV augment,HSV augment primary fold,Insulin prom inh,Insulin prom inh cell count
Cc1ccc(S(=O)(=O)CCC(=O)OCc2ccc(Cl)cc2)cc1,-1.6,85,2,i,0.86,7,73
Cc1cc(C)nc(/N=C2/NC(=O)CS2)n1,-3.0,111,2,i,0.95,x,x
O=C(COC(=O)c1cccc2ccccc12)Nc1cccnc1Cl,0.4,115,-9,i,1.1,x,x
Cc1cc(C(=O)Nc2nc3c(s2)CCCC3)cs1,-0.3,103,-4,i,1,25,85
O=C(CCCN1C(=O)c2cccc3cccc(c23)C1=O)NCCN1CCOCC1,x,76,1,i,1,39,58
NS(=O)(=O)c1ccc(NC(=O)c2ccc(COc3ccccc3)o2)cc1,x,101,5,i,0.87,x,x
CC(=O)c1ccc(NC(=O)c2ccn(C(=O)OCC(C)C)n2)cc1,-0.5,109,-2,i,1.1,11,121
O=S(=O)(c1ccc(C(F)(F)F)cc1)N1CCCN(c2ccc(C(F)(F)F)cn2)CC1,x,99,x,i,0.99,x,x
CC(C)(CN1CCC(Cc2ccccc2)CC1)NS(=O)(=O)c1ccccc1,x,98,x,i,0.91,x,x
COc1ccc(C(=O)Nc2c(C)ccc3nsnc23)cc1[N+](=O)[O-],0.0,114,-10,i,0.91,-13,90
COC(=O)CN(C(=S)Nc1ccc(F)cc1)C1CC(=O)N(c2ccc(OC)cc2)C1=O (stereo not drawn),-2.4,104,-7,i,0.8,21,123
CNC(=O)c1csc(-c2ccncc2)n1,-3.1,101,-2,i,0.7,19,108
CC(C)CCn1c(CN2CCN(Cc3ccccc3)CC2)nc2c1c(=O)[nH]c(=O)n2C,-0.8,357,1,i,1,x,x
Fc1ccc(Nc2nnns2)cc1,x,101,x,i,1,x,x
C/C(=N\O)C(=O)NCCCn1ccnc1,-1.3,97,-13,i,1,x,x
CCOC(=O)c1sc(NC(=O)/C=C/c2cnn(C)c2C)c(C(=O)OCC)c1C,0.2,103,-9,x,x,-13,146
CCC1(N(C(C)=O)c2ccc(OC)cc2)C(=O)c2ccccc2C1=O,-0.1,104,-5,i,1,-27,79
O=C(NCc1ccccc1)c1ccccc1Br,x,103,2,i,0.99,x,x
COc1ccc(NC(=O)CN(C)CC(=O)Nc2ccc(Cl)cc2F)cc1,x,113,-3,i,0.94,-29,104
COc1cccc(NC(=O)CN(Cc2ccccc2)S(C)(=O)=O)c1,0.1,111,2,i,0.92,-30,64

# The list goes on; the last two above are carried over.
SMILES,GALR2 ag,RGS16-Gao,PKD1 kinase inh,HSV augment,HSV augment primary fold,Insulin prom inh,Insulin prom inh cell count
COc1ccc(NC(=O)CN(C)CC(=O)Nc2ccc(Cl)cc2F)cc1,x,113,-3,i,0.94,-29,104
COc1cccc(NC(=O)CN(Cc2ccccc2)S(C)(=O)=O)c1,0.1,111,2,i,0.92,-30,64
CCC1=NN(C(=O)COc2ccccc2)C(O)(c2ccncc2)C1 (stereo not drawn),x,97,-5,i,0.89,50,98
CC1(C(=O)NCc2ccccn2)C=CCN1C(=O)c1ccccc1 (stereo not drawn),-2.8,107,-1,i,1,23,36
Cc1onc(-c2cccc(Cl)c2Cl)c1C(=O)O/N=C(\N)c1ccc([N+](=O)[O-])o1,x,96,x,i,1,x,x
O=[N+]([O-])c1ccc(Cc2nnc(-c3ccc(F)cc3)o2)cc1,x,96,1,i,1.2,36,67
O=C(Cn1c(=O)c2c(ncn2Cc2ccccc2)n(Cc2ccccc2)c1=O)N1CCc2ccccc21,-0.6,93,5,i,0.97,54,109
O=C(O)c1cccc(N(CCO)CCO)c1,x,104,x,i,0.92,x,x
COC(=O)CCC(=O)Nc1nccs1,x,107,0,i,1.1,x,x
CC(C(=O)NC1CCCC1)N(c1ccc(Oc2ccccc2)cc1)S(C)(=O)=O (stereo not drawn),x,101,3,i,1,x,x
CCCCn1c(-c2nn(C)cc2Cl)n[nH]c1=S,-0.2,98,-8,i,0.89,-80,97
CCOc1ccc(CNC(=O)C2CCCN(S(C)(=O)=O)C2)cc1OC (stereo not drawn),0.2,98,1,i,0.83,6,53
CSc1ccc(NC(=O)NCc2ccccc2)cc1,x,101,x,i,0.94,x,x
O=C(O)C1CCCN1S(=O)(=O)c1ccc2c(c1)CCC2 (stereo not drawn),-0.6,104,-3,i,0.83,x,x
Cc1[nH]c2ccccc2c1SCC(=O)N1CCN(c2ccccc2)CC1,-3.4,112,1,i,1,x,x
CCOC(=O)C1C(=O)CC(C)(O)C(C(=O)OCC)C1/C=C/c1ccccc1 (stereo not drawn),-1.0,100,7,i,0.99,6,88
CCc1ccc(N/C(SCc2cccc(F)c2)=C(/C#N)C(=O)NCc2ccco2)cc1,-2.0,120,-17,i,0.85,0,85
Cc1cc(C)c2c(-n3cccc3)c(C(=O)NNS(=O)(=O)c3ccccc3)sc2n1,-0.6,101,0,i,0.92,42,147
COc1ccc(C2CC(=O)c3cc(OC)c(OC)cc32)cc1OC (stereo not drawn),x,98,x,i,0.88,x,x
CCN(C(=O)CSc1nncs1)c1c(N)n(Cc2ccccc2)c(=O)[nH]c1=O,-2.1,109,-19,i,0.86,x,x
COCCCNC(=S)Nc1ccc(N2CCCCC2)cc1,x,100,-4,i,0.74,x,x
CCN(CCCNC(=O)C1CCC(=O)N1C1CCCC1)c1cccc(C)c1 (stereo not drawn),-0.9,101,2,i,0.99,-92,47
O=[N+]([O-])c1ccc2nc(-c3ccc(OC(F)F)cc3)cn2c1,x,109,-7,i,0.86,-73,141
COc1ccccc1Nc1ncccc1C(=O)O,1.8,102,-12,i,0.85,x,x
COc1ccc(-c2noc(=O)[nH]2)cc1,-0.7,103,-7,i,0.97,33,119
Cc1n[nH]c(=S)n1/N=C/c1ccc(OCc2ccc(Cl)cc2)cc1,-1.2,75,-9,i,1,0,157
Nc1ccc(S(=O)(=O)N2CCCC2)cc1,-3.2,99,-3,i,1,x,x
O=C(O)CSCc1cnn(-c2ccccc2)c1-n1cccc1,-4.5,100,3,i,0.98,x,x
O=C(c1ccc2c(c1)[nH]c(=S)n1c3ccccc3nc21)N1CCN(c2ncccn2)CC1,-2.0,92,4,i,0.71,34,106
COc1ccc2c(CC(=O)OCC(=O)Nc3ccccc3[N+](=O)[O-])coc2c1,-0.4,103,-2,i,0.82,-3,157
Cc1cc(C)cc(C(=O)N(CCc2ccccc2)C2=CC3CCC(C2)N3C)c1 (stereo not drawn),x,102,-1,i,0.94,x,x
Cc1nn(C)c(NC(=O)c2ccc([N+](=O)[O-])cc2)c1Cl,x,103,x,i,0.97,x,x
CCOC(=O)C1=CN(CC2CCCO2)C=C(C(=O)OCC)C1c1ccccc1C(F)(F)F (stereo not drawn),x,102,-10,i,1.1,-14,122
CCOc1ccc(N2C(=O)CC(S/C(N)=N/N=C/c3cccs3)C2=O)cc1 (stereo not drawn),-1.0,129,-6,i,0.92,x,x
COc1ccc(C(C(=O)NC2CCCCC2)N(C(=O)Cc2c[nH]c3ccccc23)c2ccc(NC(C)=O)cc2)cc1OC (stereo not drawn),-0.9,96,3,i,0.77,-70,122
COc1ccccc1NC(=O)COC(=O)c1ccccc1OCC(=O)Nc1ccc(SC(F)F)cc1,-0.5,101,-2,i,0.91,x,x
COc1ccc(C(=O)c2nc3c(n2O)CCCCC3)cc1,-1.1,100,-9,i,0.94,33,63
CC12CCC(C(=O)N(CC(O)CN3CCCCCC3)C1=O)C2(C)C (stereo not drawn),1.0,100,-4,i,0.95,-33,121
Cc1cc(C(=O)COC(=O)c2n[nH]c3ccccc23)c(C)n1CC1CCCO1 (stereo not drawn),-0.5,92,0,i,1,-24,82
CC(C)NC(=O)COc1nncc2ccccc12,x,98,3,i,1,-35,140
N#Cc1c(-c2ccccc2)c(C#N)c2nc3ccccc3n2c1N,1.1,107,-10,x,x,-46,86
C#CCOCCOCCOCCNc1nc(N2CCN(C(=O)[C@H]([C@@H](C)CC)n3cc([C@@H](N)CO)nn3)CC2)nc(N2CCN(C(=O)[C@H](Cc3cc4ccccc4[nH]3)n3cc([C@@H](N)C(C)CC)nn3)CC2)n1 (stereo partly drawn),x,105,-5,x,x,x,x

# Six of the compounds above, with values under each structure.
# Values run as follows: GALR2 ag	RGS16-Gao	PKD1 kinase inh	HSV augment	HSV augment primary fold	Insulin prom inh	Insulin prom inh cell count
COc1ccc(C(=O)Nc2c(C)ccc3nsnc23)cc1[N+](=O)[O-]
 : 0.0	114	-10	i	0.91	-13	90
Cc1nn(C)c(NC(=O)c2ccc([N+](=O)[O-])cc2)c1Cl
 : x	103	x	i	0.97	x	x
Nc1ccc(S(=O)(=O)N2CCCC2)cc1
 : -3.2	99	-3	i	1	x	x
COc1ccc(NC(=O)CN(C)CC(=O)Nc2ccc(Cl)cc2F)cc1
 : x	113	-3	i	0.94	-29	104
CC(C)NC(=O)COc1nncc2ccccc12
 : x	98	3	i	1	-35	140
O=C(c1ccc2c(c1)[nH]c(=S)n1c3ccccc3nc21)N1CCN(c2ncccn2)CC1
 : -2.0	92	4	i	0.71	34	106

# Continuation:
SMILES,GALR2 ag,RGS16-Gao,PKD1 kinase inh,HSV augment,HSV augment primary fold,Insulin prom inh,Insulin prom inh cell count
O=C(O)CCCCCn1c(SCc2cc(=O)n3cc(Cl)ccc3n2)nc2ccsc2c1=O,0.5,84,-7,i,0.92,43,143
O=C(CN1C(=O)CCS(=O)(=O)c2ccccc21)Nc1cccc(Cl)c1,-1.1,103,-7,i,0.95,-14,176
O=C(COC(=O)[C@@H]1CCCN1S(=O)(=O)c1ccc(Cl)cc1)NCC(F)(F)F,-0.8,105,0,i,0.97,0,138
COc1ccc2c(c1)CCN=C2Cc1ccc(OC)c(OC)c1,-1.0,97,-8,i,0.93,-138,158
COc1ccc(C2=Nc3cccc4cccc(c34)N2)cc1,-2.5,95,8,x,x,-13,126
Cc1[nH]nc2c1C(c1ccc(N(C)C)cc1)C1=C(CC(C)(C)CC1=O)N2 (stereo not drawn),x,93,6,i,1,x,x
CC(C)OCCCNCC(O)c1ccccc1 (stereo not drawn),-0.6,99,6,i,0.94,-53,102
O=C(CNc1ccc(Br)cc1)c1ccccc1,0.0,94,-4,i,0.92,-17,128
Cc1ccc(S(=O)(=O)CC#CCOC(=O)c2ccc([N+](=O)[O-])cc2)cc1,-1.4,100,-1,i,0.88,-20,109
COC(=O)c1c(NC(=S)NC(=O)c2ccco2)sc2c1CCCC2,0.2,98,-9,i,0.88,27,77
Cc1cc(C)nc(/N=C(\N)Nc2cc([N+](=O)[O-])ccc2C)n1,-3.3,109,-6,i,1.1,x,x
Cc1cc(C)nc(NCCCc2ccccc2)n1,-0.3,106,-5,i,0.9,62,141
CCOc1ccc(NC(=O)C2CC(=O)N(c3cc(C)cc(C)c3)C2)cc1 (stereo not drawn),-2.2,98,3,i,0.94,19,133
O=C(O)/C=C(\Oc1ccccc1)C1(O)CCCCC1,x,99,x,i,1.2,x,x
COCc1c(C(=O)OCC(=O)N2c3ccccc3NC(=O)C2(C)C)oc2ccccc12,-2.0,81,-4,i,0.91,-6,105
COc1cccc(NC(=O)CN(c2ccc(C)cc2)S(=O)(=O)c2c(C)nn(C)c2C)c1,-0.4,106,0,i,0.88,x,x
COc1ccc(CCN(C)Cc2nc(Cc3ccc(OC)c(OC)c3)no2)cc1OC,x,97,-9,i,0.85,x,x
Cc1ccc(NN2C(=O)C=C(c3ccc(Cl)cc3)C2=O)cc1,-3.0,88,0,i,0.62,4,96
O=C(c1nc2ccccn2c1CNCCCn1ncc2ccccc21)N1CCOCC1,x,97,0,i,1,x,x
CC1CCCCN1CC(=O)Nc1sccc1C#N (stereo not drawn),-2.9,97,-4,i,1.1,-7,89
Cn1c(=O)c2c(nc(N3CCCCCC3)n2CCSc2nc3ccccc3o2)n(C)c1=O,-1.7,98,2,i,0.98,x,x
Cc1ccc(NC(=O)c2csc(-c3ccccc3)c2C)cc1,-2.1,99,-2,i,1,x,x
O=C1NC2(CCCCC2)N=C1c1ccc(Br)cc1,-2.8,117,-8,i,0.85,14,115
CC(=O)CC1(O)C(=O)Nc2ccccc21 (stereo not drawn),x,107,x,i,0.92,x,x
CCCCCC(/C=N/Nc1ccc(S(=O)(=O)N2CCOCC2)cc1[N+](=O)[O-])=C\c1ccccc1,-2.0,87,-2,i,1.1,-14,170
CCc1cccc(CC)c1NC(=S)Nc1ccccc1,x,105,-2,i,1,x,x
COc1ccc([N+](=O)[O-])cc1N(CC(=O)Nc1ccccc1C(=O)N1CCCC1)S(C)(=O)=O,x,99,-1,i,1,x,x
O=C(C1CCN(S(=O)(=O)N2CCC3(CC2)OCCO3)CC1)N1CCc2ccccc2C1,-1.8,115,-3,x,x,-27,143
